# Bioassay records from PubChem BioAssay.
# TRPML1 blocker – human mucolipin-1 channel inhibition | TRPML1-inducible cells, Ca2+ dye fluorescence, FDSS; hits give low values; inhibition of EC80 agonist-evoked calcium signal | activity change, negative = inhibition, % (concentration not given with the values) | hit rate 0.02% among 390,000; in the data active means activity change below about -50%; inconclusive means about -30% to -50%; inactive means above about -30%;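 also: stimulus is agonist 54-4 at its EC80 concentration; % is scaled to controls: 0 for no effect and ±100 for the full control effect; compound concentration not given in the record; the text of the record puts the active cut at -80%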
#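 Calcium fluorescence in TRPML1-DL cells induced overnight with Tet: a 110 s read after compound pin addition, then a 110 s antagonist read after challenge with 54-4 at 4 uM final (EC80).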
# Sfp inh – inhibitors of Bacillus subtilis Sfp phosphopantetheinyl transferase; Biochemical Sfp PPTase activity, qHTS; Potency, µM, inactives show max response, negative = inhibition, most hits filed as inhibitors; AID 1490; Q9F4F7; hit rate 3.5% among 310,000; active = well fitted inhibition curve with a large enough effect; inconclusive = small, poorly fitted or top-dose-only effect, or another doubt; inactive = no such curve, though single readings can be large or run the other way;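 also: the enzyme is Sfp with the accession as filed and its product quenches rhodamine fluorescence; potency is read from the fitted curve at half-maximal effect; 0% = enzyme reaction without inhibitor and -100% = no enzyme wells; top concentration of the series not given in the record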
#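 Reaction rates are the 30-min fluorescence difference (ex 525, em 598 nm) in wells containing 15 nM Sfp, 5 uM rhodamine-CoA and 12.5 uM BHQ-2-YbbR at pH 7.6 with 10 mM MgCl2.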
# TRPML1 agonist – human mucolipin-1 channel agonism. Q9GZU1. TRPML1-expressing cells, Ca2+ dye fluorescence, FDSS; host cell line not named in the record; reference of the full effect not given here. activation, % (no concentration beside the values). hit rate 0.12% among 410,000. AID 624414; in the data active = activation above about 50%; inconclusive = about 30% to 50%; inactive = below about 30%; also: 0% is about no effect; the text of the record puts the active cut at 80%
#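 Kinetic FDSS Ca2+ read in Tet-induced TRPML1-DL cells (ABD Ca8 dye plus quencher, 45-90 min RT loading): baseline, then compound, then 110 s agonist window; EC80 agonist 54-4 at 4uM final added afterwards for a 110 s antagonist window.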
# ClpP mod – qHTS Assay for Activators of ClpP; purified B. subtilis ClpP, FRET peptide cleavage, 20 min; Potency, µM (titrated, usually from 57.5 µM), for the others: at the top dose activity change, negative = active; hit rate 1.9% among 340,000; AID 651965, 2013; active = well fitted falling curve with a large enough effect; inconclusive = small, poorly fitted or top-dose-only effect; inactive = no such curve, though single readings can be large or run the other way; also: potency is read from the fitted curve at half-maximal effect; the source files actives as falling curves though it sought activators and does not explain the sign; nearly all actives have a fitted effect of over 65% in size; many hits overshoot -100%
# Target sequence (P80244 whole entry, looked up): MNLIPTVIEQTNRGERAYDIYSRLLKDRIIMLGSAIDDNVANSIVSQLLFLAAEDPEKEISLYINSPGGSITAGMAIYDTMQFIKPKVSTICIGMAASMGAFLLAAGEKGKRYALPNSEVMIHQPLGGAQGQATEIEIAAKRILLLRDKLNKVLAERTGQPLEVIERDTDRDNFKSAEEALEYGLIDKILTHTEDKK
#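 ClpP 10 microg/mL final, pH 8 Tris/KCl buffer with BSA, glycerol, Tween-20; compound pinned in; FRET-FV substrate; RT 20 min; Ex320/Em430; ΔFRET vs ADEP 5.8 microM, DMSO, no enzyme.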
# PINK1 expr mod – PINK1 expression modulation; PINK1 immunofluorescence, high-content cytometry, 24 h; Potency, µM (highest dose often 76.6 µM), for inactives: top-dose activation (PINK1 increase), actives largely listed as activators; hit rate 0.2% among 410,000; active = well fitted activation curve with a large enough effect; inconclusive = small, poorly fitted or top-dose-only effect; inactive = flat fitted curve, though single readings scatter; cell line not stated here;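 also: potency is read from the fitted curve at half-maximal effect; % of control where 0% means no effect; nearly all actives have a fitted effect of over 65% in size; a mitochondrial uncoupler was the plate control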
#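 PINK1 protein, normally rapidly degraded, was detected by immunofluorescence after 24 hour compound treatment of a stable cell line. Titration data (5 concentrations) came from laser-scanning cytometry, with CCCP-treated wells as controls.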
# TRPV1 PAM – potentiators of human vanilloid receptor 1 (TRPV1); AID 540277; hit rate 0.02% among 320,000; potentiation, % at 8.33 µM; TRPV1-expressing cells, Fluo-8 calcium influx, capsaicin EC20 potentiation; host cell line not named in the record; control for the full effect not named in the record; active means potentiation above 80%; inconclusive means 30% to 80%; inactive means below 30%; also: 0% is about no effect
# Target sequence (Q8NER1 whole entry, looked up): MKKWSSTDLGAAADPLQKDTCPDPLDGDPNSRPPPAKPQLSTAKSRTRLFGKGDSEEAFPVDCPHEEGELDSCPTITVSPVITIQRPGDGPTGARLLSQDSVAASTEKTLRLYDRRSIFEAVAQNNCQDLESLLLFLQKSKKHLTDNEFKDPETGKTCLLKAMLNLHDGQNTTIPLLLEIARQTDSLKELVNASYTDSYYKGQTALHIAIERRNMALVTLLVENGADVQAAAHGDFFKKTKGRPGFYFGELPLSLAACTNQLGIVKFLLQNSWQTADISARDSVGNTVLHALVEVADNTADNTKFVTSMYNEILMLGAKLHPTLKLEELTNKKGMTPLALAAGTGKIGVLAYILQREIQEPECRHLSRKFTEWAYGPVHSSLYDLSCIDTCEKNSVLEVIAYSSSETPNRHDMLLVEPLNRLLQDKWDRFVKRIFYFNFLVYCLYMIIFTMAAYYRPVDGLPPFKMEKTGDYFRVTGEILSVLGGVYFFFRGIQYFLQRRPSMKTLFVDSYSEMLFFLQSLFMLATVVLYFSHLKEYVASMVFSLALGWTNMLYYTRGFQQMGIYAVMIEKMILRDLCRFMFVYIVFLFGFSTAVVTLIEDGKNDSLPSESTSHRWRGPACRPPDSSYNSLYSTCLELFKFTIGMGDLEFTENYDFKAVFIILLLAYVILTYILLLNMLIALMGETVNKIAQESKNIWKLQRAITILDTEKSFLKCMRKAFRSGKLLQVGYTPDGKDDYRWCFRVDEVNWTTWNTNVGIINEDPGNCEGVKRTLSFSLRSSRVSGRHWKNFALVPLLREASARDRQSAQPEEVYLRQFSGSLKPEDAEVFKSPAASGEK
#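 TRPV1-expressing cells were cultured overnight at 35.5C and loaded with Fluo-8 calcium dye for 40 to 90 min at room temperature. After a 10 s baseline, compound was added and calcium influx was read kinetically for 3 min (ex 480/em 520 nm).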
# Menin MLL FP FL – displaces fluorescein MLL peptide from human menin; Fluorescence polarization, fluorescein-MLL peptide displacement from menin; FP activity change, % at 61.4 µM; 290,000 tested, under 10 active; AID 1766; inconclusive = falling polarisation curve, or a change in total fluorescence; inactive = total fluorescence flat and polarisation flat or rising; no compound was filed as active; the % refers to the polarisation; negative = inhibition;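 also: % of control where 0% means no effect; inhibitors lower the polarisation; unlabelled MLL peptide was the positive control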
# Numbers without * were called inactive; u = inconclusive; x = not tested or not shown; [ ] = dose if it differs, or a comment.
SMILES,TRPML1 blocker,Sfp inh,TRPML1 agonist,ClpP mod,PINK1 expr mod,TRPV1 PAM,Menin MLL FP FL
CC(C)CCN1CCN(CC(c2ccccc2)c2ccccc2)CC1CCO (centres undefined),15,-17%,-0.4,x,2.2%,-16,-4.8
O=c1ccc2cc(S(=O)(=O)NCc3ccc(Br)cc3)ccc2[nH]1,27,x,0.9,-13%,-3.9%,x,x
COc1cccc(-n2c(SCc3cc(=O)oc4cc(O)c(O)cc34)nc3ccccc3c2=O)c1,13,-16%,0.6,-16%,-0.9%,-3,8.3
Cc1ccc(NC(=O)Nc2ccc([N+](=O)[O-])cc2)nc1,-5,-3%,1.1,x,3.4%,8,-2.3
CC(=O)N(NC(=O)c1ccc(C)cc1)C1CC(=O)N(c2ccccc2Cl)C1=O (centres undefined),-17,12%,0.4,-3.0%,-2.9%,-1,-0.3
CCOC(=O)N1CCN(C(=O)CN(c2ccc(OCC)cc2)S(C)(=O)=O)CC1,17,4%,0.1,1.2%,-0.1%,-2,-3.2
Nc1c(C(=O)Nc2ccc3c(c2)OCCO3)nnn1Cc1ccc(Br)cc1,3,x,9.5,x,15%,1,x
CC1CCC/C(=N\NC(=O)COc2ccccc2Cl)C1 (centres undefined),-6,16%,2.2,-1.0%,2.1%,-6,-2.4
CCOc1ccccc1NC(=O)CSc1nc2ccccc2nc1Cc1ccc(C)cc1,3,x,0.2,-0.9%,7.9%,x,x
On1nnc2ccccc21,-20,-7%,-0.1,0.1%,3.7%,x,1.2
CC(=O)Nc1ccc(NC(=O)C2CCCN2C(=O)Nc2ccc(F)cc2)cc1 (centres undefined),8,10%,0.6,x,-1.5%,20,-0.3
CCOC(=O)C1CCCN(C(=O)CN2C(=O)c3ccccc3S2(=O)=O)C1 (centres undefined),12,x,-0.3,1.6%,1.8%,x,x
CC1Cc2ccccc2N1C(=O)CSc1nnc(N)s1 (centres undefined),-5,13%,1.1,0.0%,-1.3%,11,x
O=C(NC1CCCCC1)C1CCN(C(=O)c2ccc(-c3ccccc3)cc2)CC1,-16,8%,0.0,-2.1%,1.6%,-6,-0.1
O=C(COc1ccccc1Cl)Nc1ccc(Cl)cn1,-15,-6%,1.5,1.1%,1.8%,-6,-0.9
COc1ccc(NC(=O)n2ncc3cc(Cl)ccc32)cc1OC,18,-3%,-0.8,-1.1%,0.1%,16,-22
CC1CCN(c2ncnc3nc[nH]c23)CC1,-6,6%,-0.6,0.3%,0.0%,-1,0.7
Oc1ccccc1-c1nc(NC2CCCC2)c2ccccc2n1,x,4%,x,0.1%,u,3,-25
CCn1cc(C(=O)N[C@@H](CCSC)C(=O)NCCCN2CCOCC2)c(=O)c2cc3c(cc21)OCO3,6,11%,0.5,3.6%,-0.3%,-3,-2.2
COc1ccccc1NS(=O)(=O)c1cc(NC(=O)C(C)(C)C)ccc1N1CCOCC1,22,x,-0.3,-2.1%,-0.5%,0,x
CCN1CCN(c2oc(/C=C/c3ccccc3OC)nc2C#N)CC1,-13,x,0.5,24%,1.8%,x,x
NC(Cc1ccccc1)c1csc(Nc2ccc(C(=O)NCCCO)cn2)n1 (centres undefined),x,x,-0.5,u,1.6%,x,x
O=C(NC1CCCC1)c1cccc(Cn2cc([N+](=O)[O-])cn2)c1,4,11%,0.8,16µM*,-3.4%,-5,-4.6
Cc1nc(C(C)NC(=O)CCc2nnc(-c3ccsc3)o2)cs1 (centres undefined),-12,17%,0.5,-1.8%,-0.2%,1,-0.8
O=c1c2ccccc2oc2ccc(-c3ccc4cc[nH]c4c3)cc12,-3,x,-0.2,0.2%,4.0%,x,x
COc1ccc(/C(O)=C2/C(=O)C(=O)N(CCN3CCOCC3)C2c2ccccn2)cc1 (centres undefined),-7,50µM*,-0.1,-35%,-0.4%,-8,2.3
COc1ccccc1C1NC=C([N+](=O)[O-])C=C1[N+](=O)[O-] (centres undefined),-8,u,3.5,x,4.5%,-8,18
CCS(=O)(=O)N1CCc2cc(C(=O)Nc3ccc(C)c(Cl)c3)ccc21,-19,x,-0.1,-2.1%,1.8%,x,x
Cc1cc(NC(=O)c2cccc(F)c2)no1,23,18%,4.9,0.8%,5.8%,18,0.9
COc1ccc2nc(NC(=O)CN3CCOCC3)sc2c1,-7,-11%,-0.7,-0.1%,2.0%,-7,-0.2
C/C=C(/C)C(=O)O[C@H]1[C@@H](O)c2c(ccc3ccc(=O)oc23)OC1(C)C,19,6%,-0.6,3.8%,0.1%,9,4.3
C[C@H]1C(=O)N(C)CCN1C(=O)c1cccc(OC2CCN(CC(C)(C)C)CC2)c1,12,12%,-0.5,-3.3%,-0.8%,5,x
CC1(C)CC(=O)c2c(Cc3ccccc3)n[nH]c2C1,-16,13%,-1.0,-6.3%,-2.8%,-23,1.2
CCCCN(C(=O)c1ccc(S(=O)(=O)N2CCC(C)CC2)cc1)C1CCS(=O)(=O)C1 (centres undefined),5,x,0.3,1.5%,0.9%,-18,x
CN(C)CCNC(=S)Nc1ccc(Cl)cc1Cl,2,12%,1.2,-1.1%,0.5%,-16,4.2
O=C(c1cc2ccccc2s1)N1CCN(c2ccccn2)CC1,14,8%,0.8,0.7%,1.3%,-11,x
CCc1nc2ccc(C(=O)NCCNC(C)=O)cn2c1N(CC)Cc1cccc(Br)c1,x,x,-1.0,-1.1%,0.2%,x,x
NS(=O)(=O)c1cccc(NC(=O)CN2CCN(Cc3ccc4c(c3)OCO4)CC2)c1,19,5%,1.3,-5.2%,-1.0%,-5,6.3
COc1cc(/C=C/C(=O)O)cc(S(=O)(=O)N2CCCc3ccccc32)c1OC,x,7%,x,-0.9%,3.9%,5,-2.4
CCOc1ccc(-n2nc3cc(C)c(N)cc3n2)cc1,x,-18%,x,4.0%,1.1%,26,-0.2
COc1ccccc1C(=O)Nc1ccccc1SC,5,-1%,1.5,-2.5%,0.1%[38.3 µM],3,0.7
CCOc1ccc(/C=C2\SC(=S)N(CCC(=O)Nc3ccccc3C(=O)O)C2=O)cc1,-2,-3%,-0.7,x,-0.1%,-11,4.6
COc1ccc(NC(=O)CC(C)c2ccccc2)cc1S(=O)(=O)N1CCOCC1 (centres undefined),-14,x,-1.5,-1.0%,3.7%,5,x
CCN(C(=O)c1cc(OC)c(OC)c(OC)c1)C1CCCCC1,-5,x,-0.7,-0.9%,-0.8%,x,x
CCCC(C)(C)C(=O)N1CCC1(C)C(=O)Nc1cccc2ccccc12 (centres undefined),x,x,-0.9,1.7%,15%,x,x
NC(=O)[C@@H]1CC2(CC(c3cccc(NC(=O)CC(c4ccccc4)c4ccccc4)c3)=NO2)CN1C(=O)COc1ccc(Cl)cc1 (some centres undefined),0,-6%,0.1,-12%,3.0%,-3,14
CC(C)NC(=O)C1CC(=O)N(C(C)c2ccccc2)C1 (centres undefined),10,6%,0.9,-2.9%,5.6%[38.3 µM],0,-0.2
COc1cccc2cc(CC(=O)c3ccc(C)cc3C)c(=O)oc12,x,0%,x,-7.5%,1.8%,5,7.7
O=C(CCNC(=O)c1ccccc1Cl)Nc1nc(-c2ccc3ccccc3c2)cs1,-6,-17%,0.7,-6.7%,1.0%,7,16
CCOC(=O)C1=C(C)N=c2s/c(=C/c3cccc([N+](=O)[O-])c3O)c(=O)n2C1c1ccccc1 (centres undefined),-2,50µM*,0.8,x,12%,20,u
COC(=O)C1C(=O)C2=C(CC1C)NC(C)=C(C(=O)OC1CCCCC1)C2c1ccc(N(C)C)cc1 (centres undefined),-5,0%,-0.1,3.3%,3.1%,-8,2.2
COC(=O)c1c(NC(=O)CN(C)CC(=O)Nc2ccc(C)cc2)sc2c1CCC(C)C2 (centres undefined),19,x,-0.1,-9.6%,3.3%,0,x
COC(=O)c1sc2ccccc2c1NC(=O)c1ccc(S(=O)(=O)N2CCC(C)CC2)cc1,-9,3%,0.1,-9.9%,-1.1%,12,0.2
CC(Oc1ccccc1)c1ccnn1S(=O)(=O)c1ccccc1 (centres undefined),-11,6%,0.3,1.4%,1.3%,-4,2.6
CCOC(=O)N1CCC(Nc2nc3ccccc3n3nnnc23)CC1,-13,-21%,-1.0,25µM*,1.6%,u,-10
CCCCOc1ccc(C(=O)NCCc2sc(-c3cccc(F)c3)nc2C)cc1,6,x,3.1,4.1%,1.2%,x,x
CCCCCCN(C(=O)CCCCCN1C(=O)NC(c2ccccc2)C(C(=O)OCc2ccccc2)=C1C)C(C(=O)NCCCC)c1ccc(OCC(=O)OC)c(C(=O)OC)c1 (centres undefined),x,3%,x,x,x,-17,-0.4
CCOc1ccc(CCNC(=O)c2ccc(F)c(S(=O)(=O)N3CCOCC3)c2)cc1OCC,16,-1%,0.6,1.1%,8.2%,3,0.4
COc1cccc(/C=N/NC(N)=S)c1OCc1ccccc1Cl,2,1%,1.6,x,2.6%,20,6.7
Cc1ccc(C)c(NC(=O)CSc2nnc(-c3ccco3)o2)c1,-22,-9%,-0.8,0.0%,-1.1%,2,4.6

# An excerpt from the list above, for reference:
SMILES,TRPML1 blocker,Sfp inh,TRPML1 agonist,ClpP mod,PINK1 expr mod,TRPV1 PAM,Menin MLL FP FL
CCCCCCN(C(=O)CCCCCN1C(=O)NC(c2ccccc2)C(C(=O)OCc2ccccc2)=C1C)C(C(=O)NCCCC)c1ccc(OCC(=O)OC)c(C(=O)OC)c1 (centres undefined),x,3%,x,x,x,-17,-0.4
CCOc1ccc(CCNC(=O)c2ccc(F)c(S(=O)(=O)N3CCOCC3)c2)cc1OCC,16,-1%,0.6,1.1%,8.2%,3,0.4
COc1cccc(/C=N/NC(N)=S)c1OCc1ccccc1Cl,2,1%,1.6,x,2.6%,20,6.7
Cc1ccc(C)c(NC(=O)CSc2nnc(-c3ccco3)o2)c1,-22,-9%,-0.8,0.0%,-1.1%,2,4.6

# Continuation.
SMILES,TRPML1 blocker,Sfp inh,TRPML1 agonist,ClpP mod,PINK1 expr mod,TRPV1 PAM,Menin MLL FP FL
COc1cc(/C=N/OCC(=O)Nc2cc(C)cc(C)c2)ccc1OCc1ccc(Cl)cc1,12,-3%,1.5,-11%,-1.9%,17,6.1
CNC(=O)CN1C(=O)c2cccc3cccc1c23,4,-3%,-0.3,-2.2%,-0.7%,0,1.8
COc1ccccc1Cn1ccn(CC(=O)Nc2c(C)cc(C)cc2C)c(=O)c1=O,21,x,1.0,1.5%,0.2%,x,x
CCN(CC)C(=O)c1ccc(-c2nnc(Nc3ccc(C(=O)N(C)C)cc3)c3ccccc23)cc1,-11,4%,1.9,1.7%,3.1%,-6,-5.1
